Screens as filed in PubChem.
Bead autofluor – counter-screen for toxin protease inhibitors: compound fluorescence. AID 624483. 360,000 tested, 3.1% active. fluorescence intensity (concentration not given with the values). compound autofluorescence counterscreen, microsphere flow cytometry; stronger effect = higher value;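 active = at least 3 SD above the mean of all compounds, about 16000 in these data; inconclusive = too few beads counted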;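 note: 100 nL of 1 mM stock went into each well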
PrP UTR inh – suppresses PrP 5' UTR mRNA reporter expression. cell-based PrP 5' UTR mRNA reporter, plate reader. inhibition, % (no concentration beside the values). 340,000 tested, 0.35% active. AID 488862;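 active = every replicate at 50% or more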;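 note: 0 = median of the neutral control wells; tested in H4 reporter cells; numbers are from one replicate; inactives centre near -14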
BJeLR lethal – BJeLR cell viability loss; BJeLR (HRASV12) viability, CellTiter-Glo ATP luminescence, 48 h; reference of the scale not given here; inhibition, % (concentration not given with the values); 300,000 tested, 0.17% active; AID 1554;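 active = replicate mean above 50%; inconclusive = above 50% but judged a plate artefact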;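 note: 50 nL library stock added to about 25 µL; numbers are from one replicate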
Sa RN4220 lethal – kills Staphylococcus aureus RN4220; S. aureus RN4220 growth, OD600, 16 h; inhibition, % (concentration not given with the values); 330,000 tested, 0.33% active;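 active = z-score of -3 or lower and OD600 up to 0.18 on both plates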;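 note: plate controls were untreated cells for no effect and reference antibiotic for full effect; stock transfer was 100 nL into about 80 µL; one replicate is shown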
ugtP null kill – compounds lethal to S. aureus RN4220 ugtP deletion mutant | growth inhibition, % (concentration not given with the values) | OD600 growth, 16 h; some inactives read as strong as hits | 330,000 tested, 0.54% active | AID 1259309;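 active = z-score under -3 and OD600 up to 0.15 on both plates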;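 note: plate controls were untreated wells for no effect and antibiotic for full effect; wells of about 80 µL received 100 nL stock; the first replicate is given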
Mtb hypoxia rep – Mtb hypoxia fluorescent reporter inhibition. M. tuberculosis hypoxia-regulated fluorescent reporter, fluorescence. fluorescence inhibition, % (test concentration not listed). 300,000 tested, 0.1% active. AID 1159583;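 active = 35 to 45% if threefold the growth effect, above 45% if 1.5-fold the growth effect; inactive = the rest, general growth blockers included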;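 note: wells of about 50 µL received 100 nL stock; 0% = vehicle wells and 100% = reference inhibitor wells; whole bacteria with a GFP reporter of the hypoxia response; strong numbers were not always called active; many hits fall short of the cut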
Mtb hypoxia rep growth – second read-out of Mtb hypoxia rep, no call of its own (marks repeat the call); growth inhibition, %; measured here: M. tuberculosis growth (absorbance);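 0% = vehicle and 100% = reference antibiotic; read after six days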
Numbers without * were called inactive; ? = inconclusive; / = not tested or not shown.

SMILES | Bead autofluor | PrP UTR inh | BJeLR lethal | Sa RN4220 lethal | ugtP null kill | Mtb hypoxia rep | Mtb hypoxia rep growth
COc1ccc(N(CC(=O)NCc2ccc(F)cc2)S(=O)(=O)c2c(C)n[nH]c2C)cc1 | 4204 | 3 | 6 | 2.4 | 9 | 4 | -1
CC(C)(C)OC(=O)NCCCC[C@H](NC(=O)c1[nH]cnc1C(=O)N[C@@H](Cc1ccccc1)C(=O)OC(C)(C)C)C(=O)OC(C)(C)C | 3401 | -8 | -6 | / | / | / | /
CC(Sc1nnc(-c2ccc(OC(F)F)cc2)o1)C(=O)NCC1CCCO1 (stereo not drawn) | 6212 | -15 | -5 | 0.9 | -1 | 2 | -3
O=C(C[n+]1ccccc1)NN=Cc1cc(Br)ccc1F | / | / | / | -0.5 | 3 | 0 | 4
O=C(Cn1cc2c(n1)CCCCC2)NCc1cccs1 | 6130 | -26 | -5 | 4.5 | 6 | / | /
CCOc1ccc(S(=O)(=O)NCCC(=O)N(C)Cc2ccc(C)o2)cc1 | 5982 | -18 | 5 | 3.4 | 3 | 6 | 0
CCN(C(=O)CCNC(=O)Cn1cnc2ccccc2c1=O)c1ccccc1F | 5374 | -8 | 0 | 3.6 | 1 | 14 | -1
CC(=CC1CCCCC1)C(NC(=O)c1ccc(C(F)(F)F)cc1)c1ccc(-c2ccccc2)cc1 (stereo not drawn) | / | / | / | -0.6 | 5 | 15 | 2
CC1=C(C#N)C(c2ccoc2)C(C(=O)OCc2ccccc2)=C(N)S1 (stereo not drawn) | 3199 | -4 | -8 | 3.4 | -2 | 0 | 3
CCOC(=O)c1sc(=S)n(CC)c1NC(=O)CC | 7921 | -1 | -11 | 7.0 | 22 | 4 | -4
O=C(Nc1ccccc1C(=O)O)c1cc(S(=O)(=O)N2CCCCC2)c(Cl)cc1Cl | 5346 | -44 | -5 | 7.3 | 4 | -3 | 10
O=c1[nH]c2ccc(NC(=S)Nc3ccccc3)cc2[nH]1 | 2584 | -24 | 1 | 1.7 | 4 | 2 | 0
Cc1ccc(-c2cc(N)n(-c3ccccc3)n2)cc1 | 3187 | -133 | 2 | 3.1 | 6 | 0 | -4
CCOC(=O)c1sc(C)c(C(=O)NCCCN2CCOCC2)c1N | 2836 | -10 | -2 | 1.8 | 3 | / | /
Cc1cccc(C)c1NC1=NC(=S)N(c2ccc(C(=O)O)cc2)C12CCCCC2 | 4599 | -5 | 3 | 2.4 | 4 | 7 | 6

Structures from the list above with a halogen:
SMILES | Bead autofluor | PrP UTR inh | BJeLR lethal | Sa RN4220 lethal | ugtP null kill | Mtb hypoxia rep | Mtb hypoxia rep growth
COc1ccc(N(CC(=O)NCc2ccc(F)cc2)S(=O)(=O)c2c(C)n[nH]c2C)cc1 | 4204 | 3 | 6 | 2.4 | 9 | 4 | -1
CC(Sc1nnc(-c2ccc(OC(F)F)cc2)o1)C(=O)NCC1CCCO1 (stereo not drawn) | 6212 | -15 | -5 | 0.9 | -1 | 2 | -3
O=C(C[n+]1ccccc1)NN=Cc1cc(Br)ccc1F | / | / | / | -0.5 | 3 | 0 | 4
CCN(C(=O)CCNC(=O)Cn1cnc2ccccc2c1=O)c1ccccc1F | 5374 | -8 | 0 | 3.6 | 1 | 14 | -1
CC(=CC1CCCCC1)C(NC(=O)c1ccc(C(F)(F)F)cc1)c1ccc(-c2ccccc2)cc1 (stereo not drawn) | / | / | / | -0.6 | 5 | 15 | 2
O=C(Nc1ccccc1C(=O)O)c1cc(S(=O)(=O)N2CCCCC2)c(Cl)cc1Cl | 5346 | -44 | -5 | 7.3 | 4 | -3 | 10

The results go on.
SMILES | Bead autofluor | PrP UTR inh | BJeLR lethal | Sa RN4220 lethal | ugtP null kill | Mtb hypoxia rep | Mtb hypoxia rep growth
CCOC(=O)CNC(=O)Cn1cnc2c(nnn2-c2ccc(F)cc2)c1=O | 10650 | -18 | 24 | 2.5 | 5 | 5 | 9
Cc1nn(Cc2ccccc2)c(Cl)c1C(=O)OC(C)C#N (stereo not drawn) | 5145 | 1 | 1 | 4.5 | 0 | 8 | -1
CC(=O)c1cccc(NC(=O)c2ccc([N+](=O)[O-])o2)c1 | 4065 | -27 | -12 | 43 | 91* | 25 | 15
CCNC(=O)N1CCC(c2nc3ccccc3s2)CC1 | 3038 | -4 | 1 | -1.2 | 0 | -3 | -8
O=C(NC(=S)NCCc1ccccc1)c1ccccc1F | 4600 | -34 | 4 | 4.3 | -4 | 11 | 19
CN(c1ccc(C(=O)N2CCCCC2)cc1)S(=O)(=O)c1cccs1 | 4750 | -12 | -9 | 0.3 | -2 | -6 | -7
O=C(O)/C=C/C(=O)Nc1ccc(Cl)c(C(=O)O)c1 | 4114 | -18 | -8 | 3.9 | 2 | -16 | 3
COc1ccc2cc(C=NNC(=O)c3ccc(CN(c4cccc(Cl)c4Cl)S(C)(=O)=O)cc3)c(Cl)nc2c1 | / | / | / | 7.5 | -26 | -2 | 6
COc1cc(NC(=O)c2cccs2)ccc1NC(=O)c1ccccc1Cl | 4620 | -25 | 5 | 10 | 14 | 4 | 3
O=C(COC(=O)CCc1nc2ccccc2c(=O)[nH]1)NC(=O)NC1CCCC1 | 2103 | -12 | 4 | 2.8 | 5 | -7 | 4
COC(=O)C1=C(c2cccc(C#N)c2)CC2CCC1N2C(=O)NCCc1ccccc1 (stereo not drawn) | / | / | / | 5.0 | 6 | 8 | 16
CCCc1ccc(OCc2ccc(C(=O)NCc3cccnc3)o2)c(OC)c1 | 4371 | -13 | 0 | 4.5 | 7 | 11 | 8
CCCCN(C(=O)C1CCCC1)C1CCS(=O)(=O)C1 (stereo not drawn) | 4890 | -5 | 1 | -3.1 | -3 | 1 | -4
COC(=O)CCn1nnc(-c2ccc(C(C)C)cc2)n1 | ? | 73* | 2 | 8.7 | 5 | 17 | 10
COc1cccc(-c2noc(CCC(=O)NC3CCCCC3)n2)c1 | 9889 | -26 | -13 | -6.7 | 4 | 0 | -8
CCOC(=O)C1C2COc3ccccc3C2N2C(=O)c3cc(Br)ccc3NC(=O)[C@@]12C (stereo partly drawn) | / | / | / | 0.6 | 0 | 1 | 11
COc1ccc(OC)c(CCNC(=O)c2ccc3c(c2)N(Cc2ccc(F)cc2)CCS3)c1 | 5201 | -4 | -12 | -5.3 | 4 | 4 | 6
CCOC(=O)c1c(NC(=O)CNCCO)sc(C)c1C | 2339 | 3 | -7 | 3.6 | -3 | / | /
O=C1CN(C(=O)COC(=O)c2cccnc2Cl)c2ccccc2N1 | 3702 | -8 | 3 | -2.1 | 0 | 4 | -1
CCOC(=O)N1CCN(S(=O)(=O)c2ccc3c(c2)CC(C)N3C(=O)C2CC2)CC1 (stereo not drawn) | 5666 | -14 | -3 | 1.7 | 4 | 1 | 1
O=c1c2ccccc2nc(SCc2cc(F)cc3c2OCOC3)n1Cc1ccco1 | 24180* | -3 | 12 | 3.4 | -4 | 6 | 3
Cc1cc(C(=O)OCC(=O)N2CC(C)OC(C)C2)c2ccccc2n1 (stereo not drawn) | 6017 | -13 | 2 | 1.9 | 3 | 1 | 5
Clc1ccc(CSc2nnc(NC3=NCCCCC3)s2)cc1 | 3412 | -10 | 5 | 4.5 | 11 | 8 | 12
Cc1ccc2cc(C=NNC(=O)[C@H]3C[C@@H]3c3ccccc3)c(Cl)nc2c1 | / | / | / | -1.8 | 0 | -4 | -7
O=C(Nc1ccc(S(=O)(=O)N2CCCC2)cc1)c1cc(F)c(F)cc1Cl | ? | -10 | -13 | -5.9 | 1 | 8 | 4
O=C1CS/C(=C\[N+](=O)[O-])N1c1ccccc1 | / | -7 | -4 | 3.3 | 0 | 16 | 9
CCOC(=O)c1csc(NC(=O)c2ccc3c(c2)OCCO3)n1 | 4347 | -28 | 2 | / | / | / | /
CSc1nnc2c3cc(F)ccc3n(Cc3ccccc3)c2n1 | 6382 | -37 | 7 | 0.3 | 2 | 0 | -9
CCOc1cc(-c2n[nH]c(=S)n2Cc2ccccc2)ccc1OC(F)F | 4785 | -11 | / | 5.5 | 7 | 0 | -3
CC(=O)c1sc(NC(=O)CCN2C(=O)c3ccccc3C2=O)nc1C | 5946 | -11 | -7 | 7.7 | 4 | -9 | -10
O=C(O)C1CCCN(S(=O)(=O)c2ccccc2)C1 (stereo not drawn) | 3350 | -11 | -2 | 3.3 | 2 | 12 | 11
COc1ccccc1NC(=O)N1CCN(c2ccccn2)CC1 | 5278 | -41 | -9 | 1.7 | -4 | 6 | 3
COc1ccc(C2CC3CC(c4ccccc4)N2O3)cc1 (stereo not drawn) | 10628 | -15 | -5 | 1.2 | 5 | 6 | 1
COc1cccc(C(=O)NC(C)C(c2cccs2)N2CCOCC2)c1 (stereo not drawn) | 5043 | -4 | 1 | -5.8 | 3 | 12 | 12
Cc1cc(C)nc(SCC(=O)NC2CCCCC2C)n1 (stereo not drawn) | ? | 0 | -5 | 5.4 | 11 | 2 | 0
CN(C(=O)c1ccc(S(=O)(=O)N(C)C)cc1)c1ccc2ccccc2c1 | 5316 | -4 | -3 | 6.6 | 9 | 19 | 1
COc1ccc(N(C(C)C(=O)NCc2ccco2)S(C)(=O)=O)cc1 (stereo not drawn) | 4255 | -18 | 6 | 1.5 | -2 | / | /
CCc1ccc(S(=O)(=O)N=C2C=C(Sc3ncn[nH]3)C(=O)c3ccccc32)cc1 | / | / | / | 28 | -6 | -3 | 8
CCOc1cc(CNCCc2ccccc2F)ccc1OC | 3522 | -14 | 7 | 3.5 | 1 | 10 | 3
COc1ccc(/C=N/NC(=O)CC(=O)N/N=C/c2ccc(OC)cc2)cc1 | 1905 | -12 | -8 | / | / | / | /
CCn1nc(NC(=O)c2ccccn2)c2cc3cccc(C)c3nc21 | 5248 | -29 | -14 | -2.8 | -2 | / | /
CCn1c(SCC(=O)NC2CCCCC2)nc2c(c1=O)SC(C)C2 (stereo not drawn) | 2734 | -25 | -2 | 0.3 | 2 | / | /
Cc1ccc(NC(=O)CCC(=O)NNC(=S)Nc2ccc(F)cc2F)cc1C | 5098 | -18 | 4 | -1.4 | -3 | 7 | 9
CC(C)NC(=O)CC1C(=O)N(Cc2ccccc2)C(C)c2nc3ccccc3n21 (stereo not drawn) | 2670 | -28 | 2 | 5.2 | 1 | 0 | -2
O=C(COC(=O)CCc1ccccc1)NCc1ccc2c(c1)OCO2 | 3577 | -14 | / | 3.2 | 4 | 3 | 4
COc1ccc(C(C)=O)cc1CC(C(=O)c1ccc(C)c(C)c1)N(C)C (stereo not drawn) | 8931 | -2 | -18 | 3.2 | 7 | 9 | 14
COc1ccc(Cn2c(/C=C/c3ccccc3)nc3ccccc32)cc1 | 24328* | -87 | 1 | -11 | -29 | 1 | -7
CCC(=O)N1CCN(c2nc(-c3ccc(Cl)cc3)cs2)CC1 | 4661 | -7 | -4 | -0.1 | -4 | -4 | 9
CCCOc1ccc(CNC(=O)C2CCN(C(=O)N3CCOc4ccccc43)CC2)cc1 | 4591 | -24 | 3 | -9.8 | -2 | 12 | 10
CCn1c(SCC(=O)N2CCOCC2)nnc1-c1ccco1 | 6494 | -13 | 0 | 2.8 | 2 | 1 | -6
C=CCn1c(-c2cccc(OC)c2)nc2nc3ccccc3nc21 | ? | -7 | -3 | 6.4 | -2 | 1 | -3
CC[C@]12c3[nH]c4ccc(Cl)cc4c3CCN1C(=O)[C@@H](CC(=O)NCCN1CCOCC1)C[C@@H]2C(=O)N1CCN(C(=O)c2ccco2)CC1 | 3562 | -34 | / | 1.0 | 5 | 3 | 8
COc1cccc(NC2=NCC(=O)N2Cc2cccs2)c1 | 3685 | -14 | -3 | 1.0 | 5 | / | /
CCOc1ccccc1NC(=O)N1CCCC1C(=O)Nc1nnc(CC)s1 (stereo not drawn) | 3460 | -4 | 4 | -0.6 | 6 | / | /
CCOc1ccc2nc(NC(=O)C3CCCN(S(=O)(=O)c4cccc5nonc45)C3)sc2c1 (stereo not drawn) | ? | -19 | 0 | 11 | -14 | -8 | 3
CCn1c(SCc2cccc(C(=O)O)c2)nnc1-c1ccccc1 | 3321 | 0 | 7 | -0.4 | 2 | 5 | 12
O=C(COC(=O)c1cc(Br)ccc1Cl)NC1CC1 | 2557 | -12 | / | 1.6 | 2 | 0 | 9
COCC(C)NC(=O)c1ccccc1OC(C)=O (stereo not drawn) | 4189 | -16 | -6 | 6.0 | -1 | 16 | 7
CC1CCCN(S(=O)(=O)c2cc(Cl)ccc2Cl)C1 (stereo not drawn) | 10162 | -26 | 1 | 12 | -13 | 17 | 10
